# PRMT1 inh = PRMT1 (human) inhibition, primary screen. Q99873. recombinant PRMT1, activity-based probe fluorescence polarization. inhibition, % at 2.79 µM. 1.3% of 370,000 active;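 active means inhibition above about 21% made by adding two undisclosed values, limit read from the data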
# UHRF1 MBD2 ctr = human UHRF1 methylated DNA binding inhibitors; AID 687016; inhibition, % at 4.4 µM; 0.75% of 370,000 active; UHRF1 binding to methylated oligo, TR-FRET; in the data active means inhibition above about 21%;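 further: UHRF1 SRA domain binding a hemimethylated CpG hairpin DNA probe; 0% = median of test compound wells and 100% = reference inhibitor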
# PG9 Ab binder = small molecules binding HIV-1 gp120 antibody PG9; TR-FRET gp120-PG9 antibody binding; inhibition, % at 6.7 µM; 0.43% of 360,000 active; AID 624416; in the data active means inhibition above about 8.5%
# LEDGF integ inh = blocks HIV-1 LEDGF/p75-dependent DNA integration | TR-FRET IN-LEDGF/p75 DNA integration, Eu/Cy5 | inhibition, % at 3.7 µM | 0.64% of 370,000 active;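 active means inhibition above the screen-wide mean plus 3 SD, cut at about 13% in these data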;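 further: signal is the Cy5 over europium emission ratio at 671 and 618 nm; 0% = plate median of compound wells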
# TDP2 inh = blocks human TDP2 phosphodiesterase activity | recombinant TDP2, T5PNP hydrolysis, p-nitrophenol absorbance 415 nm | O95551 | 0.34% of 370,000 active | AID 720702 | inhibition, % at 12.8 µM;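 active means inhibition above the mean of all tested compounds plus 3 SD, set per campaign, cut at about 25% in these data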;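 further: 0% = DMSO with enzyme and 100% = buffer with substrate but no TDP2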
# Target sequence (O95551 whole entry, looked up): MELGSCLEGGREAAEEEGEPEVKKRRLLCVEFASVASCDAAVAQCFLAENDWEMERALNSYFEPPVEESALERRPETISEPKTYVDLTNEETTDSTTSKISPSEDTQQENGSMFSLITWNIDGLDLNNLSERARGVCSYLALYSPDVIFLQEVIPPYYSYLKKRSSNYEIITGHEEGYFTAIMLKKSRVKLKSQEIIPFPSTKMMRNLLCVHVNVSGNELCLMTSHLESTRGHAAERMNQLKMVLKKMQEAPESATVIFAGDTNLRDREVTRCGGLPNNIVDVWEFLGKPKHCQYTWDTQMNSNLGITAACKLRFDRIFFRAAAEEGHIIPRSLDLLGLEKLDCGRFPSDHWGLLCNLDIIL
#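 System: recombinant human TDP2 / Amount: 120 nM TDP2 per well / Also added: 5 mM T5PNP chromogenic substrate / Doses: 12.8 µM single point, 1% DMSO / Incubation: 2 h at 37 °C / Detection: p-Nitrophenol epi absorbance / Evaluation: % inhibition relative to enzyme-containing and enzyme-free wells / Repeats: singlicate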
# TCR-CD3 inh = blocks the human TCR-CD3 interaction; TAMRA-labeled TCR probe fluorescence, biochemical; inhibition, % at 9.4 µM; 0.37% of 360,000 active; in the data active means inhibition above about 19%;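 further: recombinant mutant TCR 2C K166C tagged with TAMRA read by polarization; 0% = receptor in buffer alone and 100% = receptor with positive control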
# SIAE primary = human SIAE inhibition, primary screen | Q9HAT2 | SIAE FP-Rh probe binding, fluorescence polarization | inhibition, % at 9.66 µM | 0.69% of 370,000 active | AID 1053197;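 active means inhibition above a cutoff: mean of compounds within the control limits plus 3 SD of those, cut at about 17% in these data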;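 further: 0% = plate median of compound wells and 100% = probe without SIAE protein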
# mABHD4 FP = ABHD4 (mouse) inhibition, primary FP screen; purified mABHD4, FP-Rh probe fluorescence polarization; Q8VD66; 0.54% of 370,000 active; AID 720543; inhibition, % at 8.92 µM;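 active means inhibition exceeding the mean over every tested compound plus 3 SD, cut at about 30% in these data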;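 further: 0% = plate median of compound wells and 100% = S159A mutant with DMSO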
# Target sequence (Q8VD66 whole entry, looked up): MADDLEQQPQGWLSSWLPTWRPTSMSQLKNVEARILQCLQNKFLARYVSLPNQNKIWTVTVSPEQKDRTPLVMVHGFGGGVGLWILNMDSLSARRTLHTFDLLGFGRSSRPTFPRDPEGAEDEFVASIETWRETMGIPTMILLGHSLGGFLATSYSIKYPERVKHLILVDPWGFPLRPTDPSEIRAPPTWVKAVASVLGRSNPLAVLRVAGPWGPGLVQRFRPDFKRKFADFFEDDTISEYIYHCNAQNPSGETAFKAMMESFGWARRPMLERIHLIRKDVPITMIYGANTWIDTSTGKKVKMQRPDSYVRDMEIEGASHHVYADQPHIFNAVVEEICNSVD
#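 assay system = mABHD4 protein | compound dosing = single nominal dose of 8.92 µM, 0.89% DMSO final | read-out basis = percent inhibition of probe binding, normalized to plate controls | schedule = Enzyme–compound pre-incubation 45 min, then probe 60 min, both 25 °C | detection = fluorescence polarization, excitation 525 nm, emission 598 nm, BODIPY TMR filters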
# DDE Tn7 FP inh = disrupts Tn7 cyclic peptide binding to fibrin D-Dimer-E complex; 0.13% of 370,000 active; inhibition, % at 8.3 µM; FP displacement of FITC-Tn7 peptide from fibrin DD(E); 0% = median of compound wells per plate;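 active means inhibition above the mean of compounds falling within the control limits plus 3 SD of them, cut at about 14% in these data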;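 further: 0% = plate median of compound wells and 100% = 10 µM Aha-Tn7 peptide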
#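 assay system = human clot-derived fibrin DD(E) complex | quantity = Fibrin-DD(E) at 2 µM final | timing = 10 min preincubation, 3 h with tracer, room temperature | signal = fluorescence polarization | measure = percent inhibition | benchmarks = high control wells with 10 µM unlabelled Aha-Tn7 peptide (full inhibition) | replicates = singlicate testing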
# An asterisk follows results filed as active.
# Screens by letter – A = PRMT1 inh; B = UHRF1 MBD2 ctr; C = PG9 Ab binder; D = LEDGF integ inh; E = TDP2 inh; F = TCR-CD3 inh; G = SIAE primary; H = mABHD4 FP; I = DDE Tn7 FP inh
CCOC(=O)c1c(-c2ccccc2)nnn1-c1nc(OCC)nc(N2CCCCC2)n1
  A = 1 | B = -1 | C = 1.6 | D = 2 | E = 1 | F = -2 | G = 0 | H = -4 | I = 1

O=C(CN1C(=O)S/C(=C\C=C\c2ccccc2)C1=O)Nc1ccc(O)cc1
  A = 2 | B = 3 | C = -4.8 | D = -4 | E = 3 | F = -5 | G = -42 | H = -58 | I = 1

Cn1c(=O)c2c(nc(-n3ccnc3)n2Cc2ccccc2)n(C)c1=O
  A = 0 | B = 0 | C = 1.4 | D = 3 | E = -8 | F = 11 | G = -4 | H = 8 | I = 1

CCOC(=O)N1CCN(C(=O)c2ccc3c(c2)NC(=O)/C(=C/c2ccccc2)S3)CC1
  A = 3 | B = -1 | C = -1.0 | D = 0 | E = 3 | F = 4 | G = -5 | H = 0 | I = -2

O=C(Nc1cc2c(oc1=O)CCCC2=O)c1cccc(Cl)c1
  A = -1 | B = -4 | C = -0.6 | D = 1 | E = 2 | F = 2 | G = -2 | H = 6 | I = -2

O=C(Nc1ccccc1)c1ccc(F)c(S(=O)(=O)N2CCOCC2)c1
  A = 1 | B = 0 | C = 1.6 | D = -4 | E = -4 | F = -5 | G = -7 | H = 1 | I = 1

COc1ccc(CN(C)C2CCCCC2)c(C)c1C
  A = 2 | B = -2 | C = -1.3 | D = -4 | E = 6 | F = -7 | G = -3 | H = 3 | I = -3

N/C(=N\O)c1ccccc1-n1cccc1
  A = -2 | B = 0 | C = -0.1 | D = 0 | E = 6 | F = 4 | G = 2 | H = 0 | I = -8

CCCn1nnc(NC(=O)c2ccc(-c3cc(Cl)ccc3Cl)o2)n1
  A = 0 | B = 0 | C = -0.6 | D = -2 | E = 12 | F = 0 | G = -10 | H = -3 | I = 5

COc1ccc(CC(=O)OCC(=O)NC(=O)NC23CC4CC(CC(C4)C2)C3)cc1
  A = 1 | B = 2 | C = -1.3 | D = 0 | E = 0 | F = 3 | G = 6 | H = -1 | I = 2

CC(C)(C)c1ccc(C(=O)NCC(=O)NNC(=O)c2ccccc2O)cc1
  A = -2 | B = -3 | C = 0.9 | D = -9 | E = -2 | F = 35* | G = 2 | H = 13 | I = -6

COC(=O)Oc1ccc(/C=C/C(=O)OC(C)C)cc1OC(=O)OC
  A = 6 | B = 5 | C = -1.2 | D = -10 | E = -14 | F = 4 | G = -5 | H = 8 | I = 1

O=C(NNC(=O)c1ccccc1O)c1ccccc1O
  A = 4 | B = 0 | C = -3.1 | D = 27* | E = -8 | F = 40* | G = 7 | H = 23 | I = 4

COc1ccc(CN2CCNC(=O)C2CC(=O)NCCC2=CCCCC2)cc1OC (stereo unspecified)
  A = -9 | B = -2 | C = -2.4 | D = 3 | E = -1 | F = 2 | G = 0 | H = -2 | I = -2

N#CC(c1ccccc1)(c1ncc(C(F)(F)F)cc1Cl)N1CCOCC1 (stereo unspecified)
  A = 0 | B = -1 | C = -0.5 | D = 1 | E = 2 | F = 5 | G = -5 | H = 5 | I = 6

CC1(C)Cc2ccccc2C(C(=O)c2ccccc2)=N1
  A = -1 | B = 0 | C = -1.3 | D = 2 | E = 0 | F = 2 | G = 5 | H = -1 | I = -6

COc1cnc(-c2ccccn2)nc1Sc1ccc(C)cc1
  A = 1 | B = -1 | C = 1.7 | D = 10 | E = 4 | F = -4 | G = 0 | H = 2 | I = 2

O=C(COC(=O)/C=C/c1ccc([N+](=O)[O-])cc1)NC(=O)NC1CCCCC1
  A = 0 | B = 2 | C = -1.2 | D = -9 | E = -4 | F = -3 | G = 1 | H = -5 | I = -2

N/C(=N\OC(=O)c1ccco1)c1cccc(Br)c1
  A = -2 | B = -1 | C = 1.8 | D = 1 | E = 0 | F = -4 | G = 0 | H = -1 | I = 9

O=Nc1[nH]c(=O)c(/C=C(\O)c2ccccc2)nc1NO
  A = 1 | B = -6 | C = -4.3 | D = 3 | E = -12 | F = 30* | G = 6 | H = 6 | I = -8

CCOC(=O)c1cc2ccc3ccccc3c2oc1=O
  A = -5 | B = -13 | C = 0.4 | D = 6 | E = 0 | F = 4 | G = 5 | H = -3 | I = 0

CC1(OC(=O)C2CCCC2)C(=O)C=C2C=C(c3ccsc3)OC=C2C1=O (stereo unspecified)
  A = 15 | B = 1 | C = -2.0 | D = 12 | E = 14 | F = -1 | G = 7 | H = 24 | I = -3

CCOC(=O)C1CCN(C(=O)CCCNC(=O)Cn2cnc3sc(C)c(C)c3c2=O)CC1
  A = 0 | B = 3 | C = -1.9 | D = 0 | E = 12 | F = 0 | G = 2 | H = -2 | I = 7

CC(C)(C)c1ccc(C(=O)OCC(=O)Nc2sc3c(c2C#N)CCC3)cc1
  A = 0 | B = 0 | C = -1.2 | D = -2 | E = 13 | F = 4 | G = 9 | H = 9 | I = 2

O=C(Oc1ccc2c(=O)c(Oc3ccc4ccccc4c3)coc2c1)c1ccco1
  A = 0 | B = 4 | C = 1.1 | D = 2 | E = 0 | F = -8 | G = -12 | H = -13 | I = 0

COc1cccc(/C=C/C(=O)OCC(=O)Nc2cccc(S(=O)(=O)N(C)C)c2)c1
  A = 1 | B = 3 | C = -1.0 | D = -7 | E = -4 | F = -1 | G = -11 | H = -11 | I = -5

OC(CN1CCc2ccccc2C1)c1ccccc1 (stereo unspecified)
  A = 4 | B = 5 | C = -1.9 | D = -3 | E = -5 | F = -3 | G = -1 | H = 0 | I = -1

CC(C)c1ccc(-c2c(NCCc3ccccc3)c(=O)c2=O)cc1
  A = 9 | B = 2 | C = 0.5 | D = -5 | E = -13 | F = -1 | G = -2 | H = -10 | I = -2

# Compounds listed so far that contain nitrogen in an aromatic ring, in the order listed:
# Screens by letter – A = PRMT1 inh; B = UHRF1 MBD2 ctr; C = PG9 Ab binder; D = LEDGF integ inh; E = TDP2 inh; F = TCR-CD3 inh; G = SIAE primary; H = mABHD4 FP; I = DDE Tn7 FP inh
CCOC(=O)c1c(-c2ccccc2)nnn1-c1nc(OCC)nc(N2CCCCC2)n1
  A = 1 | B = -1 | C = 1.6 | D = 2 | E = 1 | F = -2 | G = 0 | H = -4 | I = 1

Cn1c(=O)c2c(nc(-n3ccnc3)n2Cc2ccccc2)n(C)c1=O
  A = 0 | B = 0 | C = 1.4 | D = 3 | E = -8 | F = 11 | G = -4 | H = 8 | I = 1

N/C(=N\O)c1ccccc1-n1cccc1
  A = -2 | B = 0 | C = -0.1 | D = 0 | E = 6 | F = 4 | G = 2 | H = 0 | I = -8

CCCn1nnc(NC(=O)c2ccc(-c3cc(Cl)ccc3Cl)o2)n1
  A = 0 | B = 0 | C = -0.6 | D = -2 | E = 12 | F = 0 | G = -10 | H = -3 | I = 5

N#CC(c1ccccc1)(c1ncc(C(F)(F)F)cc1Cl)N1CCOCC1 (stereo unspecified)
  A = 0 | B = -1 | C = -0.5 | D = 1 | E = 2 | F = 5 | G = -5 | H = 5 | I = 6

COc1cnc(-c2ccccn2)nc1Sc1ccc(C)cc1
  A = 1 | B = -1 | C = 1.7 | D = 10 | E = 4 | F = -4 | G = 0 | H = 2 | I = 2

O=Nc1[nH]c(=O)c(/C=C(\O)c2ccccc2)nc1NO
  A = 1 | B = -6 | C = -4.3 | D = 3 | E = -12 | F = 30* | G = 6 | H = 6 | I = -8

CCOC(=O)C1CCN(C(=O)CCCNC(=O)Cn2cnc3sc(C)c(C)c3c2=O)CC1
  A = 0 | B = 3 | C = -1.9 | D = 0 | E = 12 | F = 0 | G = 2 | H = -2 | I = 7

# Screening results (PubChem BioAssay)

# This is a subset, so the mix of outcomes need not match the whole.
